KCNQ2 enhance: potentiators of rat KCNQ2 potassium channel. B-score at 10 µM. Potassium voltage-gated channel subfamily KQT member 2 (Rattus norvegicus), O88943. CHO-K1 KCNQ2, FluxOR thallium flux fluorescence; hits give high values. 0.54% of 310,000 active. AID 2239, 2010;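 active means fluorescence ratio B-score at least 3 SD of library B-scores, with initial fluorescence B-score within 3 SD, cut at about 5.3 in these data; same plate scores as AID 2156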;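 further: B-score of peak minus minimum over baseline fluorescence ratio after K+ and Tl+ stimulus; positive B-score means potentiation of KCNQ2 with more thallium influx and brighter signal; only the inactives scoring about 0 or higher are listed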
Target sequence (O88943 whole entry, looked up): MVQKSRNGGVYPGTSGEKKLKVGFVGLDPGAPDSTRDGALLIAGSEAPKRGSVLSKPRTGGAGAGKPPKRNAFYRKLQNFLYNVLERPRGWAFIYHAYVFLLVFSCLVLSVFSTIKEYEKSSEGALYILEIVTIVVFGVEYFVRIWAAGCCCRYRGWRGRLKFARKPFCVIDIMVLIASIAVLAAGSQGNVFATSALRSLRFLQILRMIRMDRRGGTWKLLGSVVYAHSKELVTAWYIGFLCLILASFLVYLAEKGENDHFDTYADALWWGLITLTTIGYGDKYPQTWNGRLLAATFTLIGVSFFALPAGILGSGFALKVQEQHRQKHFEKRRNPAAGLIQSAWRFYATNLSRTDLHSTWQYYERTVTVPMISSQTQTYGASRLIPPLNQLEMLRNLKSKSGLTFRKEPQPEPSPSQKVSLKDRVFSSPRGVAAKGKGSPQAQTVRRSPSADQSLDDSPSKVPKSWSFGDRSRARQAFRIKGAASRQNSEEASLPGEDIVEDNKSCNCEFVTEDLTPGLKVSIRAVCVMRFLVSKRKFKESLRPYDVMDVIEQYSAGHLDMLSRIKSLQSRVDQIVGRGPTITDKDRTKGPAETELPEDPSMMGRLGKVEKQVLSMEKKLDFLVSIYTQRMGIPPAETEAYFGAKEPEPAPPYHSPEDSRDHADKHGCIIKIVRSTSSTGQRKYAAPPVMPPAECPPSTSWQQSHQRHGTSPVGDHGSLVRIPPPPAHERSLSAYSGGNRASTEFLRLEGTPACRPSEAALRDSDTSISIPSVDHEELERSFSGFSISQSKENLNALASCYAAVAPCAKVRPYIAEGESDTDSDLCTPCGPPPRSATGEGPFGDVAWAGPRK
KCNQ2 enhance baseline: recorded beside KCNQ2 enhance, whose call it bears; B-score; compound at 10 µM; measured here: initial fluorescence intensity artifact check;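 brightness before thallium and not channel activity; 0 = typical well and far values either way flag optical interference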
Numbers without * were called inactive.

SMILES	KCNQ2 enhance	KCNQ2 enhance baseline
Cc1ccccc1NC(=O)CC1C(=O)NCCN1C(=O)c1cccc(Cl)c1 (stereo not given)	0.55	0.15
COc1ccc(OC)c(C2=Nn3c(nnc3-c3ccco3)SC2)c1	1.6	-0.65
CCOC(=O)C1=C2SCCN2C(=O)C(C#N)C1(C)C (stereo not given)	0.7	-0.01
COc1ccc(N2CCN(C(c3ccc4ncccc4c3)c3nnnn3C(C)(C)C)CC2)cc1 (stereo not given)	0.18	0.94
CCCCOc1ccc(C(C)NC(=O)C2CCCN(S(=O)(=O)CC)C2)cc1 (stereo not given)	1.2	0.23
COc1ccccc1C(=O)NC(CCSC)C(=O)NNC(=O)c1ccncc1 (stereo not given)	0.06	-0.48
CSc1nc(N)c(C(=O)Nc2ccc([N+](=O)[O-])cc2)s1	0.75	0.01
O=C1C2ON(c3ccc(Br)cc3)C(c3cccnc3)C2C(=O)N1C1CCCCC1 (stereo not given)	0.96	0.98
Cn1c(COc2ccccc2)nnc1SCC(=O)Nc1ccc(S(N)(=O)=O)cc1	0.11	-0.55
COc1ccccc1NS(=O)(=O)c1ccc(N/N=C(\C)C(C)C)c([N+](=O)[O-])c1	0.68	-0.05
O=C(c1cccc(Cl)c1)N1CCCC(C(=O)N2CCCCCC2)C1 (stereo not given)	0.66	-1.4
COc1cc([N+](=O)[O-])ccc1NC(=O)NNC(=O)CCc1ccccc1	2.2	1.4

Compound profiles, from the list above. Order of values: KCNQ2 enhance | KCNQ2 enhance baseline
O=C1C2ON(c3ccc(Br)cc3)C(c3cccnc3)C2C(=O)N1C1CCCCC1 (stereo not given) is entered as 0.96 | 0.98
CCCCOc1ccc(C(C)NC(=O)C2CCCN(S(=O)(=O)CC)C2)cc1 (stereo not given) is entered as 1.2 | 0.23
CSc1nc(N)c(C(=O)Nc2ccc([N+](=O)[O-])cc2)s1 is entered as 0.75 | 0.01
COc1ccc(OC)c(C2=Nn3c(nnc3-c3ccco3)SC2)c1 is entered as 1.6 | -0.65

Next part:
SMILES	KCNQ2 enhance	KCNQ2 enhance baseline
Cc1ccc(C2CC(c3ccccc3)=NN2C(=O)CSc2nnc(-c3ccncc3)n2C)o1 (stereo not given)	0.15	-2.8
O=C(C1CCN(C2CCN(Cc3ccsc3)CC2)CC1)N1CCOCC1	0.05	-0.25
Cc1cc(S(=O)(=O)NCC(=O)O)ccc1F	0.77	-1.5
Cc1cc2ccccc2c(=O)[nH]1	0.05	0.4
O=C(O)C1C2CCCCC2=C2CCCCC2C1C(=O)c1ccccc1 (stereo not given)	0.41	-0.61
CC1CCCN(S(=O)(=O)c2csc(C(N)=O)c2)C1 (stereo not given)	0.24	-0.98
COC(=O)c1cc(S(=O)(=O)N2CCCCCC2)c[nH]1	1.8	-0.66
Cc1ccc(S(=O)(=O)N2CC(C(=O)O)Oc3ccccc32)cc1 (stereo not given)	2.2	-0.65
CS(=O)(=O)N1CCCC(C(=O)Nc2c(F)cccc2F)C1 (stereo not given)	0.11	0.23
Cc1cc(=O)[nH]c(SCC(=O)Nc2nc(-c3ccccc3)cs2)n1	0.94	0.86
CCCn1c(=N)c(C#N)cc2c(=O)n3cccc(C)c3nc21	0.19	0.77
COc1ccc(NC(=O)CSc2nnc(Cc3ccccc3)o2)c(OC)c1	0.2	0.78
Cc1ccccc1NC(=O)N1CCCC(c2nc(-c3ccc(C(C)C)cc3)no2)C1 (stereo not given)	0.53	-1.1
CN1CCN(c2ccc([N+](=O)[O-])cc2S(=O)(=O)N2CCOCC2)CC1	0.15	0.13
COc1ccc(CCNC(=O)c2cc(-c3cc(C)cc(C)c3O)n[nH]2)cc1OC	0.67	1.2
CC(=O)Nc1ccc(NC(=O)c2c(C)nn(Cc3ccccc3Cl)c2C)cc1	0.54	-0.69
N#Cc1c(N)sc(=S)c2c1CCCC2	0.88	-0.29
C/C(=N\NC(=O)c1ccc([N+](=O)[O-])cc1Cl)c1ccccc1	0.85	-0.17
C[N+]1(CC(O)COc2ccccc2)CCN(C(=O)c2ccc([N+](=O)[O-])cc2)CC1 (stereo not given)	1.1	0.01
CCOC(=O)N1CCC(NC(=O)C2CCN(S(=O)(=O)c3cnc[nH]3)CC2)CC1	1.4	0.33
COc1ccc(OC)c(N/C=C/C(=O)c2ccccc2)c1	0.72	-0.79
Cc1ccc(N2N=C(C(=O)O)CCC2=O)cc1Cl	0.72	0.97
COc1ccc(C(=O)NCc2cccnc2)cc1OC	0.72	-1.6
O=C(Nc1ccc(OCC(=O)N2CCOCC2)cc1)Nc1cccc2ccccc12	0.7	3.2
COc1ccc(-n2nc(C(=O)NCC(=O)N3CCN(c4ccccn4)CC3)c3ccccc3c2=O)c(OC)c1	0.24	-1.2
CCC(=O)N1CCc2cc(S(=O)(=O)CCC(=O)NCCC3=CCCCC3)ccc21	1.1	0
COC(=O)c1ccccc1OC(=O)c1cccnc1	0.01	0.02
O=C(O)c1ccc(CNCc2ccc(Cl)cc2)cc1	0.25	0.42
O=C(Nc1cccc(Cl)c1)c1cc(S(=O)(=O)N2CCCCC2)c[nH]1	1.8	0.19
O=C(NCc1cccnc1)C1CC(=O)N(c2ccc(F)cc2)C1 (stereo not given)	1.6	-1.1
Cc1ccc(NC(=O)c2cc(C)nc3ccccc23)cc1	0.37	-0.66
Cc1cc(C)n2c(SC/C(O)=C(\C#N)c3nc4ccccc4[nH]3)nnc2n1	0.37	-0.02
O=C(NCc1ccccn1)c1cc2n(n1)C(C(F)(F)F)CC(c1ccco1)N2 (stereo not given)	0.59	-1.8
CCCC(=O)Nc1c(-c2cccc(OC)c2)c(=O)c2ccccc2n1C	0.22	-0.61
CC(O)CNCCOc1cccc(Oc2ccccc2)c1 (stereo not given)	0.65	1.4
Cc1cccc(NC(=O)/C(=C\c2ccco2)NC(=O)c2cccs2)c1	0.24	-1.1
Cc1cc(C)nc(N(C#N)CC(=O)N(c2ccccc2)C(C)C)n1	0.01	-0.79
CCOC(=O)c1c(NC(=O)CN2C(=O)C(=O)N(CC(C)C)C2=O)sc(C)c1CC	0.27	-0.06
CCOC(=O)c1cc(NC(=O)NC2CCCCC2)c(C)nc1C	1.1	-0.02
COc1ccccc1CC(NC(C)=O)C(=O)NC1CCN(C(=O)Nc2ccccc2C)CC1 (stereo not given)	2.2	-1.4
CCCCCn1c(C(C)NC(=O)CCC)nc2ccccc21 (stereo not given)	0.2	-0.23
Cc1ccc(OCC(=O)NNC(=O)c2ccco2)c(C)c1	0.39	-1
COc1ccc(NS(=O)(=O)c2ccc(NC(C)=O)cc2)cc1OC	2.8	-0.26
CN(C)Cc1c(C(=O)N/N=C/c2cccc(OCc3ccccc3)c2)nnn1-c1nonc1N	2.1	2.3
CCN1CCN(C(=O)c2cc(COc3ccc(C(C)=O)cc3OC)on2)CC1	1	-0.04
COc1cc(/C=C2\SC(=S)N(NS(=O)(=O)c3ccc(C)cc3)C2=O)cc(OC)c1OC	1.6	-0.22
O=C(Nc1cccc(Cl)c1)Nc1nnc(CC2=CCCCC2)s1	0.02	0.58
COc1ccccc1-n1cnnc1SCC(=O)Nc1cccc(S(=O)(=O)N2CCCCC2)c1	0.66	-0.18

Part of the list above, reformatted:
The line under a structure holds: KCNQ2 enhance	KCNQ2 enhance baseline
- CCN1CCN(C(=O)c2cc(COc3ccc(C(C)=O)cc3OC)on2)CC1
    1	-0.04
- COc1cc(/C=C2\SC(=S)N(NS(=O)(=O)c3ccc(C)cc3)C2=O)cc(OC)c1OC
    1.6	-0.22

The listing continues:
SMILES	KCNQ2 enhance	KCNQ2 enhance baseline
O=C(CSc1ccc2nnc(-c3ccccn3)n2n1)Nc1ccc2c(c1)OCO2	0.25	-0.55
CC(C)CCN1CCN(Cc2cccc3cccnc23)CC1CCO (stereo not given)	0.05	0.05
O=C(/C=C/c1ccc(Cl)cc1)c1ccc([N+](=O)[O-])o1	0.03	0.67
CCNC(=O)CP(=O)(c1ccccc1)c1ccccc1	0.12	2.1
NS(=O)(=O)c1cccc(NC(=O)COC(=O)/C=C/c2ccco2)c1	0.89	0.13
O=C(NCc1ccc(F)cc1)Nc1ccccc1	2.6	0.03
CC(C)c1nc(NCCN2CCOCC2)c(C#N)c2c1COC(C)(C)C2	0.47	-0.12
Cc1cc(C(=O)CCC(=O)N2CCN(c3ccccc3)CC2)c(C)s1	0.03	-0.24
CC(C)(O)c1[nH]c2cc(C(F)(F)F)ccc2c1C(C)(C)O	1	0.22
CCN(CC)S(=O)(=O)c1ccc2c(c1)c(=O)c(C(=O)N1CCN(c3ccccn3)CC1)cn2C	0.9	-2.7
Cc1ccc(S(=O)(=O)N2CCCCC2C(=O)N2CCN(C)CC2)cc1 (stereo not given)	0.02	0.58
COc1cc(C)c(CNC2CCCCC2)cc1C	0.32	-0.76
O=C(O)CSc1nc2ccccc2n1C1CCCCC1	0.9	-1
O=C(c1cnc2ccccn2c1=O)N1CCc2ccccc21	0.27	1.2
O=C(NC1CCCC1)C(c1ccsc1)N(C(=O)Cc1cccs1)c1ccccc1 (stereo not given)	1.3	-2.3
CCCCNC(=O)C(NS(=O)(=O)c1cccc2nsnc12)c1ccccc1 (stereo not given)	0.05	0.88
COc1ccc(-c2cc(-c3ccccc3)c(C#N)c(S(C)(=O)=O)n2)cc1	0.8	-3.8
COc1ccc(C(=O)CSc2nnc(CNc3ccc(F)cc3)o2)cc1	0.17	-0.44
COc1ccccc1OCC(=O)OCC(=O)NCCN1C(=O)CSC1=O	0.61	-0.39
OCCC1CN(Cc2cccs2)CCN1Cc1ccccc1 (stereo not given)	0.02	2.2
CCC(=O)N(Cc1ccco1)c1nc(-c2ccccc2)cs1	0.24	0.45
Nc1ccccc1Oc1c(F)c(F)c(Oc2ccccc2N)c(F)c1F	0.82	-0.22
Cn1c(=O)cc(OCCCC(=O)Nc2ccccn2)c2ccccc21	0.18	-0.61
COc1ccc(OC)c(C2c3[nH]c4ccccc4c3C[C@H]3C(=O)N(C4CC4)CC(=O)N23)c1 (stereo not given in full)	0.11	0.38
Cc1c(Cl)cccc1NC(=O)CSc1nncn1-c1cccnc1	1.1	0.04
COc1ccc(OCCC(=O)OCC(=O)NC2CCCCCCC2)cc1	0.98	1.3
O=C(N/N=C/c1cc(Cl)cc([N+](=O)[O-])c1O)c1ccc2c(c1)OCO2	1.8	-0.42
Cc1noc(C)c1COc1ccc(C(=O)N2CCN(c3ccccn3)CC2)cc1	0.61	0.55
Cc1ccc(NC(=O)C2CCCN2C(=O)NCc2ccccc2)cc1 (stereo not given)	2.1	-0.87
N#Cc1c(NC(=O)COC(=O)c2nccnc2N)sc2c1CCCC2	0.11	2
Cc1cc(C)n2nc(CC(=O)NCc3ccc(F)cc3)nc2n1	1.5	-0.38
CCOC(=O)C1(C)NC(c2ccc(N(C)C)cc2)C2C(=O)N(CC)C(=O)C21 (stereo not given)	1.7	-0.36
CC12CCC(=O)N1C(C(=O)OCC(=O)Nc1ccc(S(N)(=O)=O)cc1)CS2 (stereo not given)	0.74	1.5
CCCCNC(=O)c1ccc2c(OCC)n(CCCC)nc2c1	0.19	-0.03
O=C(Cn1nc(-c2ccc(F)cc2)ccc1=O)Nc1ccc(C(=O)NC2CC2)cc1	0.13	0.96
COc1ccccc1CNC(=O)[C@@H]1CCCN1S(=O)(=O)c1ccc(C)cc1	0.01	1.2
Brc1ccc(-c2nc(-c3ccncc3)no2)o1	0.04	0.03
COc1cccc(C(=O)C2CCCN(Cc3c(C)n(C)n(-c4ccccc4)c3=O)C2)c1 (stereo not given)	0.39	-0.65
COCCOC(=O)C1=C(C)NC(=S)NC1/C=C/c1ccccc1 (stereo not given)	0.53	0.59
Cc1csc(NC(=O)COc2ccc3c(C)cc(=O)oc3c2)n1	0.6	1.3
O=C(COC(=O)/C=C/c1cccs1)NC1CC1	0.59	-1.2
COc1ccc(OC(=O)c2ccc(OC)c(S(=O)(=O)N3CCOCC3)c2)cc1	0.01	0
O=C(Nc1nc2cc3c(cc2s1)OCCO3)c1cccs1	0.51	-0.16
CN(CC1CCCO1)S(=O)(=O)c1ccc(C(=O)Nc2ccc(S(N)(=O)=O)cc2)cc1 (stereo not given)	0.65	-0.92
COc1ccc(OCc2cc(C(=O)N(C)CCC3CCOCC3)no2)c(Cl)c1	0.17	-2.8
C[C@H](NC(=O)C1(c2ccccc2)CCN(C(=O)OC(C)(C)C)CC1)C(=O)N[C@@H](C(=O)O)c1ccccc1	0.22	0.66
O=c1cc(CSc2nnnn2-c2ccccc2)[nH]c2[nH]n(-c3ccccc3)c(=O)c12	1.3	-0.98
O=C(Nc1nc2c(s1)CCCC2)c1ccc(Br)o1	1.3	2.1
CSc1nc(NC(C)=O)nc(C)c1Br	1.2	2.5
Cn1c(SCc2cccc(Br)c2)nnc1-c1ccccn1	1.7	-1.2
O=c1[nH]c(CSc2ccccc2)nc2c1oc1ccccc12	0.16	0.02
COc1cccc(NC(=O)Cn2c(=O)n(CCCC(=O)NCc3ccco3)c(=O)c3ccccc32)c1	0.04	-1.6
C=CCn1c(=O)c2ccc(C(=O)NCc3ccccc3)cc2n(Cc2cccc(Cl)c2)c1=O	3.3	0.85
Cc1ccc(OCCC(=O)N2CCN(c3ccc(O)cc3)CC2)cc1	0.55	-0.01

Reformatted: 4 of the compounds above.
COc1ccccc1-n1cnnc1SCC(=O)Nc1cccc(S(=O)(=O)N2CCCCC2)c1
  KCNQ2 enhance = 0.66 | KCNQ2 enhance baseline = -0.18

CCN(CC)S(=O)(=O)c1ccc2c(c1)c(=O)c(C(=O)N1CCN(c3ccccn3)CC1)cn2C
  KCNQ2 enhance = 0.9 | KCNQ2 enhance baseline = -2.7

COc1ccc(CCNC(=O)c2cc(-c3cc(C)cc(C)c3O)n[nH]2)cc1OC
  KCNQ2 enhance = 0.67 | KCNQ2 enhance baseline = 1.2

COc1ccc(-c2cc(-c3ccccc3)c(C#N)c(S(C)(=O)=O)n2)cc1
  KCNQ2 enhance = 0.8 | KCNQ2 enhance baseline = -3.8

A portion of the library; count on the stated rates, not on these rows.
